Bioassay records deposited in PubChem BioAssay by National Center for Advancing Translational Sciences (NCATS).
NS1 function inh: qHTS Assay for Inhibitors of Influenza NS1 Protein Function. S. cerevisiae slowed by influenza A NS1, growth recovery by OD600. hit rate 0.4% among 270,000. Potency, µM (series often up to 46.1 µM), inactives show at the highest dose activity, positive = more growth. AID 2326, 2010; active means well fitted rising curve with a large enough effect; inconclusive means small, poorly fitted or top-dose-only effect; inactive means no such curve, though single readings can be large or run the other way; further: nearly all actives have a fitted effect of over 50% in size
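Compounds were scored for reversing the slow growth caused by influenza A NS1 in S. cerevisiae, measured by optical density at 600 nm. Assay medium contained 2% galactose at pH 6.0; NS1-free yeast of the same strain were the positive control.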
Cruzain inh Det: qHTS Assay for Promiscuous and Specific Inhibitors of Cruzain (with detergent); Cruzipain (Trypanosoma cruzi), P25779; purified cruzain, Z-FR-AMC fluorescence, 0.01% Triton; Potency, µM, without a hit: max response, negative = inhibition, actives largely listed as inhibitors; hit rate 0.43% among 200,000; AID 1478, 2009;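 further: plate controls were neutral wells for no effect and buffer without enzyme for full effect; nearly all actives have a fitted effect of over 40% in size; top concentration of the series not given in the record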
Target sequence (P25779 123-467 limits assumed): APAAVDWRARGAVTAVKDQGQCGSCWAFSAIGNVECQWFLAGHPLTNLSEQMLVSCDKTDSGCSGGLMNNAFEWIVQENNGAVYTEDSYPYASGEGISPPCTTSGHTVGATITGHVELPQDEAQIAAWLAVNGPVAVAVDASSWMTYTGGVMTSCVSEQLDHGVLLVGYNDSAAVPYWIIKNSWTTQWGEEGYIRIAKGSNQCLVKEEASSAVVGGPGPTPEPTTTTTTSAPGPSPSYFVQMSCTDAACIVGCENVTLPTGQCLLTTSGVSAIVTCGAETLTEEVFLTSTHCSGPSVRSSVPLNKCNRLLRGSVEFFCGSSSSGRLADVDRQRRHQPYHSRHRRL
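Enzyme 1.5 nM, Z-FR-AMC 2 uM, NaOAc 100 mM pH 5.5, DTT 5 mM, Triton X-100 0.01%; 15 min RT compound preincubation; kinetic ex360/em450, 60 s delta.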
Cruzain inh noDet: qHTS Assay for Promiscuous and Specific Inhibitors of Cruzain (without detergent); purified cruzain, Z-FR-AMC fluorescence, no detergent; hit rate 2.3% among 200,000; Potency, µM, inactives show max response, negative = inhibition, actives largely listed as inhibitors; AID 1476, 2009; Cruzipain (Trypanosoma cruzi), P25779;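 further: plate controls were enzyme without inhibitor for no effect and buffer without enzyme for full effect; nearly all actives have a fitted effect of over 40% in size; top concentration of the series not given in the record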
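Purified cruzain at 1.5 nM, pre-incubated 15 min with compound at room temperature in 100 mM sodium acetate pH 5.5, 5 mM DTT, 0.00005% Triton X-100. Reaction started with 2 uM Z-FR-AMC; AMC fluorescence increase over 60 s gives rate.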
LASV entry inh: qHTS for Inhibitors of binding or entry into cells for Lassa Virus; Potency, µM (top dose mostly 37.9 µM), for inactives: top-dose activity change, negative = inhibition, usual class: inhibitors; AID 540256, 2011; hit rate 1.2% among 300,000; Lassa virus pseudotype entry inhibition, cell reporter; control for the full effect not named in the record; active means well fitted inhibition curve with a large enough effect; inconclusive means small, poorly fitted or top-dose-only effect, or effect the other way; inactive means flat fitted curve, though single readings scatter; tested in HEK293 cells; further: on the % scale 0 is the no-effect control and ±100 the full control effect; nearly all actives have a fitted effect of over 50% in size; luciferase read-out
2A StopGo: High Throughput Screening for Foot and Mouth Disease Virus Antivirals | Potency, µM (doses to about 57.9 µM), inactives show at the highest dose signal change, negative = less light | human cells with a luciferase reporter of 2A StopGo recoding; control for the full effect not named in the record | hit rate 1.2% among 410,000; active = well fitted falling curve with a large enough effect; inconclusive = small, poorly fitted or top-dose-only effect; inactive = no such curve, though single readings can be large or run the other way; tested in HEK293T cells; further: on the % scale 0 is the no-effect control and ±100 the full control effect; nearly all actives have a fitted effect of over 45% in size; luciferase light after 4 h
MARV entry inh: qHTS for inhibitors of binding or entry into cells for Marburg Virus; AID 540276, 2011; Potency, µM (series often up to 37.8 µM), for inactives: top-dose activity change, negative = inhibition, actives largely listed as inhibitors; Marburg virus pseudotyped entry inhibition, cell reporter; control for the full effect not named in the record; about a third of the inactives were read at about 46 µM; hit rate 1.8% among 300,000; active = well fitted inhibition curve with a large enough effect; inconclusive = small, poorly fitted or top-dose-only effect, or effect the other way; inactive = flat fitted curve, though single readings scatter; tested in HEK293 cells; about a fifth of its hits are not listed in these tables; further: on the % scale 0 is the no-effect control and ±100 the full control effect; luciferase read-out
RE007 growth inh: qHTS Assay for Inhibitors of the HIV-1 protein Vpr; S. pombe RE007 Vpr strain, BacTiter-Glo ATP luminescence, 24 h; control for the full effect not named in the record; Potency, µM (series often up to 92.2 µM), without a hit: at the top dose activity change, negative = less growth; hit rate 0.21% among 360,000; AID 651644, 2012; active = well fitted falling curve with a large enough effect; inconclusive = small, poorly fitted or top-dose-only effect; inactive = no such curve, though single readings can be large or run the other way;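 further: on the % scale 0 is the no-effect control and ±100 the full control effect; nearly all actives have a fitted effect of over 50% in size; the assay follows cell death caused by Vpr and the record does not say whether a fall means rescue or toxicity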
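Fission yeast strain RE007, carrying one chromosomally integrated HIV-1 vpr copy, was seeded at OD 0.01 in PMG+AL medium with 23 nL pinned compound. After 24 h at 30 °C and 99% humidity, viability was read by BacTiter-Glo luminescence.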
SARS PLP yeast: qHTS of Yeast-based Assay for SARS-CoV PLP; S. cerevisiae expressing SARS-CoV PLpro, growth rescue; control for the full effect not named in the record; hit rate 0.19% among 330,000; AID 485353, 2010; Potency, µM (titrated, usually from 32.9 µM), without a hit: at the highest dose activity, positive = growth rescue; active means well fitted rising curve with a large enough effect; inconclusive means small, poorly fitted or top-dose-only effect; inactive means no such curve, though single readings can be large or run the other way; further: 0% is about no effect; nearly all actives have a fitted effect of over 55% in size; growth read by luminescence after 48 h
* = called active by the depositor; ? = inconclusive; nt = not tested or not shown; & = joins results of further samples; [ ] = dose if it differs, or a comment. Unless noted, the call rests on the fitted dose curve; in most records, active means well fitted curve in the direction sought with a large enough effect; inconclusive means small, poorly fitted or top-dose-only effect, or another doubt; inactive means no such curve, though single readings can be large; an effect the other way counts as inactive or inconclusive. Potency means the concentration at half of the fitted maximal effect.

no.	Compound	NS1 function inh	Cruzain inh Det	Cruzain inh noDet	LASV entry inh	2A StopGo	MARV entry inh	RE007 growth inh	SARS PLP yeast
1	Cc1cc(C)nc(SCC(=O)N2CCCCC2)n1	2%	4.2%	9%	-2%	-8%	1%	27%	6%
2	CC(C)(C)C(=O)NC1CC2CCCC(C1)N2C(=O)Nc1ccc(Cl)cc1 (configuration not stated)	2%	nt	nt	?	-20%	?	3%	6%
3	NC(=O)C1CCCN(C(=O)CCC(=O)c2cccs2)C1 (configuration not stated)	nt	nt	nt	38%	15%	5%	24%	5%
4	CC(=O)Nc1ccc(C(=O)N(C)c2ccccc2)cc1	5%	5.9%	0%	9%	-22%	17%	5%	2%
5	O=C1NC2(CCCCC2)Oc2ccccc21	-11%	3.4%	2%	6%	-3%	10%	-1%	0%
6	Cc1c(NC(=O)CN2C(=O)C3C4C=CC(C4)C3C2=O)c(=O)n(-c2ccccc2)n1C (configuration not stated)	0%	7.8%	-6%	15%	-25%	-14%	-2%	-3%
7	COC(=O)c1ccc(Cn2c(SCC(=O)N(C)c3ccccc3)nc3ccccc32)cc1	nt	-5.8%	11%	?	-26%	nt	nt	nt
8	CCOCC(=O)Nc1sc2c(c1C(=O)OCC)CCCC2	-16%	-10%	?	-19%	-24%	-1%	-1%	-19%
9	CC(C)(C)OC(=O)NCCCCCNC(=O)c1[nH]cnc1C(=O)N[C@@H](CCCCNC(=O)OC(C)(C)C)C(=O)OC(C)(C)C	9%	nt	nt	nt	-30%	nt	2%	0%
10	Cc1ccc(CN(C)c2ccc(S(=O)(=O)N3CCCC3)cn2)cc1	nt	nt	nt	?	-28%	?	-3%	-5%
11	Cn1c(NCC(O)CO)nc2c1c(=O)n(Cc1ccc(Cl)c(Cl)c1)c(=O)n2C (configuration not stated)	?	4.6%	?	4%	?	?	4%	-9%
12	CCn1c(SCC(=O)N2CCCC(C)C2)nnc1-c1ccco1 (configuration not stated)	4%	nt	nt	9%	7%	12%[46.1 µM]	-7%	-1%
13	O=C(N/N=C\c1c(O)ccc2ccccc12)c1cncc(Br)c1	-70%	nt	nt	?	-19%	?	-6%	?
14	CCOc1nc(-c2ccccc2)c2cc(Br)ccc2n1	0%	nt	nt	1%[46.1 µM]	-21%	1%[46.1 µM]	9%	-1%
15	O=C(CN1CCCN(Cc2ccc(F)cc2Cl)C1=O)NC1CCCC1	nt	nt	nt	19%[46.1 µM]	-11%	8%[46.1 µM]	5%	1%
16	CCOCCn1c(CC)nc2ccccc21	1%	nt	nt	4%	-10%	-6%[46.1 µM]	-17%	0%
17	COCCn1c(SCC(=O)Nc2ccccc2C)nc2c(oc3ccccc32)c1=O	2%	-3.8%	6%	12%	-14%	?	12%	-24%
18	O=C(CNCC(=O)Nc1ccc(F)c(F)c1F)Nc1ccc(F)c(F)c1F	6%	nt	nt	nt	-4%	nt	-1%	0%
19	Cc1ccc(CNC(=O)C2CCN(S(=O)(=O)c3cccc4nonc34)CC2)cc1	3%	-3.1%	-19%	4%&24%[46.1 µM]	0%&-14%	?	0%	-2%
20	Cn1cc(C(=O)C(=O)NC2CC2)c2ccccc21	nt	nt	nt	15%	12%	12%[46.1 µM]	0%	nt
21	CCc1nc(SCC(=O)Nc2ccc(NC(C)=O)cc2)n[nH]1	nt	-4.5%	-6%	7%[46.1 µM]	11%	14%[46.1 µM]	nt	nt
22	O=C(Cc1cccc2ccccc12)NCCOc1ccccc1F	-8%	nt	nt	3%	-2%	1%	7%	0%
23	Cc1cccc2cc(C#N)c(SCC(=O)NNC(=O)Cc3ccccc3)nc12	16%	4.7%	25µM*	-9%	0%	?	9%	-1%
24	CNC(=O)c1[nH]cnc1C(=O)N[C@@H](Cc1ccccc1)C(=O)OC(C)(C)C	4%	nt	nt	nt	-15%	nt	-3%	0%
25	CC(C)CC(=O)CN1C(=O)C2(OCCO2)c2ccccc21	-5%	-3.3%	-11%	7%	2%	5%	-18%	-3%
26	CCn1ncc(/C=N/O)c1C	0%	-1.4%	-1%	13%	-6%	12%[46.1 µM]	-3%	-6%
27	CC(Sc1nnc(-c2ccc(O)cc2)o1)C(=O)Nc1cccc2ccccc12 (configuration not stated)	-11%	-6.7%	-2%	0%	-2%	-1%	2%	-7%
28	Cn1c(-c2ccccc2)cnc1N	9%	6.8%	-3%	11%	39%[activator]	10%[46.1 µM]	5%	-4%
29	Cn1cc(CN2CCC(C(=O)N3CCCC3)CC2)c(-c2ccccc2F)n1	4%	nt	nt	3%[46.1 µM]	-4%	2%[46.1 µM]	9%	1%
30	COc1ccc(N(C(=O)c2ccco2)S(=O)(=O)c2cccc([N+](=O)[O-])c2)cc1	3%	-2.7%	-1%	2%	10%	?	1%	-3%
31	OCCCN1CCN(CCOc2ccccc2-c2ccccc2)CC1	1%	0.5%	4%	8%	-4%	5%	4%	-6%
32	CCOC(=O)N1CCN(Cc2nc3cc(NC(C)=O)ccc3n2CC)CC1	3%	nt	nt	nt	-12%	nt	11%	0%
33	Cc1cc(C)n2[nH]c(=O)c(N=Nc3cccc(C(F)(F)F)c3)c2n1	13%	-3.2%	13%	0%	0%	-1%	-5%	-1%
34	C/C(NC1CCCC1)=C(/C#N)C(N)=O	4%	-2.4%	2%	6%	-18%	17%	5%	2%
35	COCCN1CCN(Cc2ccc(C(=O)NC(C)C)cc2)C(=O)C1=O	nt	0.7%	1%	28%[46.1 µM]	-19%	nt	nt	nt
36	CC1=C(n2nnc3ccccc32)C(c2ccccc2)C(C#N)=C(N)O1 (configuration not stated)	-35%	-1.7%	-13%	nt	0%	nt	-1%	4%
37	O=c1ccc2cc([N+](=O)[O-])c(CCO)cc2o1	-9%	nt	nt	nt	1%	nt	-4%	10%
38	CCN1CCN(c2nc(Nc3cc(OC)ccc3OC)nc(Nc3cc(OC)ccc3OC)n2)CC1	-2%	nt	nt	16%	?	?	1%	-1%
39	CCn1c2ccccc2c2cc(/C=N/NC(=O)c3ccncc3)ccc21	-3%	nt	nt	5.6µM*	-23%	?	2%	-1%
40	CCCCCCn1cc(C(=O)O)c(=O)c2cc(F)c(N3CCN(C(=O)OCC)CC3)cc21	?	nt	nt	20%[46.1 µM]	-18%	13%[46.1 µM]	4%	16%
41	CCN(CC)CCCC(C)Nc1nccc2c(Cl)cccc12 (configuration not stated)	nt	nt	nt	?	-18%	?	-28%	nt
42	COc1ccc(-c2coc3c2c(C)cc2oc(=O)c(CC(=O)O)c(C)c23)cc1	nt	-25%	-4%	20%[46.1 µM]	17%	9%[46.1 µM]	nt	nt
43	COCCNC(=O)CN1C(=O)CN=C(c2ccccc2)c2ccccc21	0%	nt	nt	10%	35%	9%[46.1 µM]	-3%	3%
44	COc1ccccc1NC(=O)N(CCN(C)C)Cc1cc2cc(C)ccc2[nH]c1=O	-3%	-0.3%	-4%	?	-11%	?	0%	-4%
45	COc1cccc2cc(C(=O)OCC(=O)NC3CCCC(C)C3C)c(=O)oc12 (configuration not stated)	nt	nt	nt	12%[46.1 µM]	21%	?	-23%	1%
46	CCC(C)(C(=O)Nc1ccccc1C)N(C(=O)CNC(C)=O)c1ccc(C)cc1 (configuration not stated)	-13%	-2.4%	5%	3%	-14%	?	19%	18%
47	CCOC(=O)N1CCN(C(c2ccc(F)cc2)c2sc3nc(C)nn3c2O)CC1 (configuration not stated)	-13%	-2.5%	?	nt	-30%	nt	6%	5%
48	CCCCCCn1c(CN2CCN(Cc3ccccc3)CC2)nc2c1c(=O)n(C)c(=O)n2C	-2%	5.3%	9%	-17%	?	?	-7%	6%
49	Cc1nn(Cc2n[nH]c(=S)n2Cc2ccccc2)c(C)c1Cl	-2%	-3.7%	3%	2%	-9%	?	46%	-15%
50	CC1CC(C)CN(CC(=O)NC(c2ccccc2)c2ccccc2)C1 (configuration not stated)	-2%	nt	nt	?	?	?	-16%	0%

The list goes on:
no.	Compound	NS1 function inh	Cruzain inh Det	Cruzain inh noDet	LASV entry inh	2A StopGo	MARV entry inh	RE007 growth inh	SARS PLP yeast
51	COCCNC(=O)CC(=O)N/N=C/c1ccc(C(=O)OC)cc1	2%	nt	nt	4%	-1%	-23%	3%	0%
52	COc1ccccc1C(=O)NCC(=O)OCC(=O)Nc1cccc(S(=O)(=O)N2CCCCCC2)c1	nt	nt	nt	-22%	2%	3%[46.1 µM]	3%	-1%
53	CCOc1ccccc1NC(=O)COC(=O)c1c[nH]c2ccccc12	nt	nt	nt	?	?	?	21%	-2%
54	CC(=O)c1cccc(NC(=O)[C@@H](NC(N)=O)C(C)C)c1	nt	nt	nt	6%[46.1 µM]	8%	20%[46.1 µM]	74%	6%
55	COc1ccc(/C=C(\C#N)C(=O)Nc2ccccn2)cc1	-1%	nt	nt	-1%	35%[activator]	3%[46.1 µM]	0%	16%
56	COc1ccc([N+](=O)[O-])cc1NS(=O)(=O)c1cccc(C(=O)O)c1	5%	nt	nt	17%	-6%	1%[46.1 µM]	-20%	-1%
57	CCOC(=O)c1c(C=O)c2sc(C)cc2n1C	nt	nt	nt	4%	12%	26%[46.1 µM]	-12%	-3%
58	COc1ccc2cc(C(=O)C3CCCN(C(=O)c4cnn(C(C)C)c4)C3)ccc2c1 (configuration not stated)	-3%	nt	nt	nt	1%	nt	4%	4%
59	COc1cc(OC)c2cc(C(=O)N/N=C/c3cccc(OC)c3O)[nH]c2c1	1%	nt	nt	?	-25%	4.5µM*	4%	0%
60	Cc1cccc(NC(=O)c2cc(S(=O)(=O)NCc3ccco3)ccc2F)c1C	-4%	-3.1%	-7%	-12%	16%	-17%	5%	9%
61	C#CCCOC(=O)N1C2=NC(C(=O)OC)=C(C(=O)OC)[C@@H]3N(Cc4ccccc4)c4ccccc4[C@]23C[C@H]1C(=O)OC	-6%	nt	nt	nt	-15%	nt	-7%	6%

This is a random part of the collection; 4.7% or so of the library scored in one or more.
